AID923: qHTS Assay for Allosteric/Competitive Inhibitors of Caspase-1: Spectroscopic Profiling in AFC Spectral Region; AID 923, 2007; compound fluorescence, AFC spectral region (405/520 nm); almost no hit is shown here; 75,000 tested, 1.1% active; Potency, µM (doses to about 57.5 µM), for the others: at the highest dose fluorescence increase, actives largely listed as activators; active means well fitted activation curve with a large enough effect; inconclusive means small, poorly fitted or top-dose-only effect;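 further: potency means the concentration at half of the fitted maximal effect; 0% is about no effect; scaled to a free AFC standard on each plate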
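Titrations up to 57 uM read every 20 sec for 3 min (405/520 nm) with 50 nM caspase 1 and 5 uM Ac-WEHD-AFC, pH 7.5 HEPES buffer. Fluorescence-vs-time intercept gave baseline, scaled against on-plate AFC standard.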
TSHR ag: agonists of human thyroid stimulating hormone receptor; HEK293-CNG-TSHR cells (CNG channel as cAMP sensor), membrane potential dye, cAMP; P16473; Potency, µM (titrated, usually from 57.1 µM), inactives show at the highest dose activation, most hits filed as activators; 73,000 tested, 0.48% active; AID 926; active = well fitted activation curve of enough size with the parental cells flat; inconclusive = any curve in the parental cells; inactive = parental cells flat and receptor cells flat or falling; further: potency means the concentration at half of the fitted maximal effect; % of control where 0% means no effect; weak receptor curves with flat parental cells got no call and are not listed
Target sequence (P16473 whole entry, looked up): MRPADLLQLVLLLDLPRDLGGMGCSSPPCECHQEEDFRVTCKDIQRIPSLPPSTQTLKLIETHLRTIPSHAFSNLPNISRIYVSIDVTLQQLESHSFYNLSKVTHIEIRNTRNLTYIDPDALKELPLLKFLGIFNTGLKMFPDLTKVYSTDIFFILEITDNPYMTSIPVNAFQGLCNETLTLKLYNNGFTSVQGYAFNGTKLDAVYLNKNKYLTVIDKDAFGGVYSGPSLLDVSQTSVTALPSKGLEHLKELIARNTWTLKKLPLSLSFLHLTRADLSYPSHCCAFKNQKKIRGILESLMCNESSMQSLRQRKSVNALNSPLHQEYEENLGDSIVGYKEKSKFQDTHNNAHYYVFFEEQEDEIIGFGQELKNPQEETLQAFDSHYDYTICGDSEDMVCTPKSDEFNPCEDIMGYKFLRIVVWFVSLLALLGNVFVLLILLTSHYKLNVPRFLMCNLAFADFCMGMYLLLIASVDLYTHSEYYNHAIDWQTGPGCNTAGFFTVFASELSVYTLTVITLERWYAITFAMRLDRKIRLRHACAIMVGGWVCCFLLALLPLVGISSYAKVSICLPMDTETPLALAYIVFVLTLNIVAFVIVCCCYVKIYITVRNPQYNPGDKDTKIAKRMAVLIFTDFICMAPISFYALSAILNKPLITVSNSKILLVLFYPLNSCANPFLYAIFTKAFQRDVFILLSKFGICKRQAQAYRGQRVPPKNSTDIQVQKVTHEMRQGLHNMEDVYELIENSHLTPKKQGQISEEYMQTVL
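HEK 293 cells stably expressing TSHR and a cAMP-gated CNG channel; parental CNG-only cells as counterscreen. Cells preloaded 60 min with membrane potential dye plus 100 uM RO 20-1724, then compound 30 min; fluorescence read at 590 nm.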
A647 autofl: A647 region autofluorescence; max dye-equivalent concentration, M; 59,000 tested, under 10 active; AID 592; Compound fluorescence, A647 channel (570/671 nm), Tris buffer; active means above 1 µM dye equivalent; inconclusive means 0.1 to 1 µM; inactive means 0.1 µM or less;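 further: values scaled relative to a standard on each plate; highest value over a series up to 38 µM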
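Fluorescence read (570 nm ex, 671 nm em) after 15 min RT incubation of compounds in 100 mM Tris buffer, pH 8.0; values expressed as dye-equivalent concentration against a six-point A647 standard series on each plate.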
A488 fluor: compound autofluorescence in A488 spectral region. AID 591. compound autofluorescence, A488 spectral region, dye equivalency; hits give high values. 59,000 tested, 0.1% active. max dye equivalency, M; active = above 10 nM dye equivalent; inconclusive = 1 to 10 nM; inactive = 1 nM or less; about half of its hits are not listed in these tables;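 further: highest value over a series up to 38 µM; compound alone in buffer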
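Compound autofluorescence was read in 100 mM Tris pH 8.0 after 15 min at room temperature, ex 480 nm/em 540 nm. Intensities were converted to A488 dye-equivalent concentration using an on-plate six-point A488 standard curve.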
Resorufin fluor: compounds fluorescent in resorufin spectral region. Compound fluorescence, resorufin region 547/598 nm, buffer; hits give high values. max dye-equivalent concentration, M. 59,000 tested, 0.04% active. AID 588; active = above 10 nM dye equivalent; inconclusive = 1 to 10 nM; inactive = 1 nM or less; a few of its hits are not listed in these tables; further: highest value over a series up to 38 µM
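Read-out: intrinsic compound fluorescence at ex 547/em 598 nm after 15 min at RT in pH 8.0 Tris (100 mM). Values expressed as resorufin-equivalent concentration from per-plate standard series.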
Starred values were filed as active, the others as inactive; i = inactive; ? = inconclusive; / = not tested or not shown; & = joins results of further samples; [ ] = dose if it differs, or a comment.

SMILES | AID923 | TSHR ag | A647 autofl | A488 fluor | Resorufin fluor
COC(=O)c1cc(=O)[nH]c(SCc2cccc(C)c2)n1 | 0.5% | 21.8% | / | / | /
CCCC[C@@H]1C[C@H]1C(NC(=O)c1ccco1)c1ccc(-c2ccccc2)cc1 (stereo partly drawn) | 1.3% | -5.2% | / | / | /
N#CC1=C(N)N2C(=C(C#N)C1c1ccccc1)Sc1ccccc12 (stereo not drawn) | / | / | 4.65e-08 | ? | i
O=C(C(Cc1ccccc1)n1cccc1)N1CCc2ccccc21 (stereo not drawn) | 2.0% | ? | / | / | /
CC(=O)Nc1cc(NC(C)=O)cc(C(=O)NC(C)(C)C)c1 | -0.1% | -1.0% | 4.2e-09 | i | i
COc1cccc([C@H]2Oc3ccc(OC)cc3/C(=N\O[C@@H](C)c3cn([C@H](CO)Cc4ccccc4)nn3)[C@@H]2O)c1 | -1.6%&-3.3%[11.5 µM] | -6.0%&0.8%[11.4 µM] | / | / | /
COC(=O)C1=C(C(=O)c2ccccc2)C(c2cccs2)n2nnnc2N1 (stereo not drawn) | 2.2% | ? | 2.45e-08 | i | i
Cc1ccc2[nH]c(C)c(CN(C)C3CCN(C)CC3)c(=O)c2c1 | -0.2% | ? | 1.05e-08 | i | i
O=C(Nc1ccc2c(c1)OCCO2)c1ccc(Cl)c(S(=O)(=O)N2CCOCC2)c1 | -0.6% | ? | 3.7e-09 | i | i
COC(=O)NC1CSCC1OC(=O)c1ccc(Br)cc1 (stereo not drawn) | -0.9% | 7.7% | 2.18e-08 | i | i
CC(O)(C#CCN1CCCC1)c1ccccc1 (stereo not drawn) | -1.2% | 4.8% | / | / | /
Cc1cnc(CNc2ncnc3ccc(-c4ccc(N(C)C)cc4)cc23)cn1 | -0.4% | 19.0% | 1e-09 | i | i
CN1CCCN(C)C1c1cc([N+](=O)[O-])ccc1O | 1.0%[11.5 µM] | -7.2%[11.4 µM] | 1e-09 | i | i
CCOC(=O)C1C2C=CC3(CN(Cc4ccco4)C(=O)C13)O2 (stereo not drawn) | 2.2% | 1.2% | 4e-09 | i | i
CC(=O)c1c(C)[nH]c(C(=O)Nc2c(C)n(C)n(-c3ccccc3)c2=O)c1C | 0.7% | 0.0% | 2.8e-09 | i | i
CN(Cc1ccco1)c1ncncc1-c1ccoc1 | 3.1% | -0.5% | 2.88e-08 | i | i
O=S(=O)(c1cccc(-c2csc(-c3cccnc3)n2)c1)N1CCCCC1 | 1.1% | ? | 1e-09 | i | i
COc1ccc(OC)c(C2C(C(C)=O)=C(O)C(=O)N2c2ccc(F)cc2)c1 (stereo not drawn) | 0.4% | 7.6%[11.4 µM] | / | / | /
CCOc1ccc2cc(S(=O)(=O)N3CCOCC3)ccc2c1 | 0.4% | 11.4% | 2.5e-09 | i | i
CCn1nnc(-c2ccccc2NC(=O)c2cc(OC)c(OC)c(OC)c2)n1 | -0.9% | ? | 2.5e-09 | i | i
O=C(COC(=O)c1cnccn1)c1ccc(Br)cc1 | 0.0% | 5.2% | / | / | /
COc1ccc(CNc2ncncc2-c2ccc3c(c2)OCO3)c(OC)c1 | -0.5% | ? | 1e-09 | i | i
COC(=O)C/C=C\[C@@H](C)[C@@H](/C=N\O[C@@H]1O[C@H](COC(C)=O)[C@@H](OC(C)=O)[C@H](OC(C)=O)[C@H]1OC(C)=O)NS(=O)(=O)c1ccc(C)cc1 | 0.0%[11.5 µM] | -0.3%[11.4 µM] | / | / | /
O=C(CSC1=NCCS1)N1CCN(c2ccccc2)CC1 | -2.2% | 2.1% | 1e-09 | i | i
N#Cc1cccc(NC(=O)N2CC[C@@]3(CCCN(C(=O)c4csnn4)C3)C2)c1 | 1.6% | 18.0% | 1.2e-09 | i | i
Cc1ccc2nc(C)c(C)nc2c1N | -0.1% | 0.8%[11.4 µM] | 3.06e-08 | i | i
O=C1c2ccccc2C(=O)N1CCCc1nc(-c2ccc(Cl)cc2)no1 | -0.3% | ? | / | / | /
CSc1oc(-c2ccc(F)cc2)nc1S(=O)(=O)c1ccccc1 | -0.2% | ? | 1.16e-08 | i | i
COc1ccccc1N1CCN(C(=O)c2cc(-c3cccs3)on2)CC1 | 0.4% | 18.8% | 7.9e-09 | i | i
COc1ccc(CN2CC(C(=O)NCCCN3CCCCCC3)CC2=O)cc1 (stereo not drawn) | 0.4% | 4.6% | 3.92e-08 | i | i
CCn1c(N)c(C(N)=O)sc1=S | 2.5% | -5.6% | 7.2e-09 | i | i
O=C(O)C(Oc1ccc2c3c(c(=O)oc2c1)CCC3)c1ccccc1 (stereo not drawn) | -1.0% | 12.2% | 5.6e-09 | i | i
O=c1cc(N2CCCC2)[nH]c(=O)n1-c1ccc(Cl)cc1 | -0.4% | 22.3% | 1e-09 | i | i
Cc1cnc(CNc2ccnc(-c3c(C)noc3C)n2)cn1 | -0.2% | 10.8% | 2.68e-08 | i | i
O=C(c1cccc(F)c1)N1CCC2(CCN(Cc3cc(C(F)(F)F)cc(C(F)(F)F)c3)CC2)CC1 | 0.9% | -4.5% | 1.28e-08 | i | i
C=CCN=C(NC#N)SCC(=O)NC(C)(C)C | 1.6% | 1.5% | 1.4e-09 | i | i
Cc1cc(C)cc(N(CC(=O)NC2CCC(C)CC2)S(=O)(=O)c2c(C)noc2C)c1 (stereo not drawn) | 1.5% | 12.7% | / | / | /
O=C(Nc1ccncc1)c1cccs1 | 1.9% | 11.7% | / | / | /
CCCC1=[N+](CC)CCn2c(C)ccc21 | 0.5% | 8.4% | 1.3e-08 | i | i
CCCC[C@@H]1C[C@H]1C(NC(=O)c1ccco1)c1ccc(C(=O)OC)cc1 (stereo partly drawn) | -0.9% | ? | / | / | /
CCN1CCN(Cc2ccc(OC)c(OCc3ccccc3)c2)CC1 | -0.8% | 34.4% | 6.23e-08 | i | i
COc1ccc(NC(=O)N2CCC(O)(c3cccnc3)CC2)c(OC)c1 | -0.7% | -0.9% | 1.14e-08 | i | i
Cc1ccc(C(=O)N2CCN(C)CC2)cc1S(=O)(=O)N1CCCCC1 | 0.2% | 0.6% | 3.08e-08 | i | i
O=C(O)CCC(=O)N(Cc1cccs1)Cc1cccs1 | 2.6% | 4.4% | 2.98e-08 | i | i
NC(=O)c1ccccc1-c1nc(-n2ccnc2)c2ccccc2n1 | 2.6% | 10.1% | 1e-09 | i | i
Cc1ccc2nc(-c3ccccc3Cl)cc(C(=O)Nc3cc(C)on3)c2c1 | 0.6% | ? | 1e-09 | i | i
O=C(O)CCCc1ccc2ccccc2c1 | -4.5%[11.5 µM] | 7.8%[11.4 µM] | 1e-09 | i | i
OC(CCN1CCCCC1)(c1ccccc1)C1CCCCC1 (stereo not drawn) | -1.2% | / | 4.69e-08 | i | i
CCN(CCCNC(=O)C1CCN(S(=O)(=O)c2cccc3nonc23)CC1)Cc1ccccc1 | 0.3% | 3.5% | 6.3e-09 | i | i
COc1ccc(C(=O)NCC(=O)NC2=NCCS2)cc1 | 0.3% | ? | / | / | /
COc1cccc(-c2nnc3n2N=C(c2cccc(Br)c2)CS3)c1 | -0.9% | 6.6% | 2.86e-08 | i | i
COc1ccc(Cl)cc1S(=O)(=O)N1CCN(CC(=O)C(C)(C)C)CC1 | 0.3% | -6.8% | 1.2e-09 | i | i
CCOC(=O)c1ccc2ncc(C(=O)OCC)c(NCCCN3CCOCC3)c2c1 | 0.8% | 1.1% | / | / | /
Cc1ccc(Cn2nnc3c(=O)n(CC(=O)NCC4CCCO4)cnc32)cc1 (stereo not drawn) | 1.2% | 0.6% | 4.12e-08 | i | i
CCCN1CCN(CCCNC(=O)Cn2nc(-c3ccccc3)ccc2=O)CC1 | 1.2% | 10.3%[11.4 µM] | 2.05e-08 | i | i
COc1ccc(OCCSc2nc3ccccc3c(=O)[nH]2)cc1 | 5.2% | ? | / | / | /
CCS(=O)(=O)NCCc1csc(C)n1 | 1.0% | 1.4%[11.4 µM] | 1e-09 | i | i
Cc1cc(NC(=O)COC(=O)c2c(C)nn(-c3ccccc3)c2C)no1 | -0.4% | 8.9% | 2.25e-08 | i | i
COc1cc(N)c(Cl)cc1C(=O)OCCCN1CCCCC1 | -1.5% | 1.2% | / | / | /
N#CCCn1c(=O)c(-c2ccc(Cl)cc2)nc2cnc(OCc3ccccc3)nc21 | 2.0% | -4.8% | 7.1e-09 | i | i
(list continues)
SMILES | AID923 | TSHR ag | A647 autofl | A488 fluor | Resorufin fluor
CC(C)c1c(O)nc(SCc2ccccc2)[nH]c1=O | -0.4% | 0.7% | 1.2e-09 | i | i
CCC(C)(NC(=O)CNC(C)=O)C(=O)NC1CCCCC1 (stereo not drawn) | -2.2% | 6.1% | 1e-09 | i | i
CC(C)OCCCNC(=O)c1c(N)n(/N=C/c2ccccn2)c2nc3ccccc3nc12 | 1.1% | ? | 6.5e-09 | i | i
CCCCCn1c(CNC(=O)c2cccs2)nc2ccccc21 | -1.0% | 2.6%[11.4 µM] | 1e-09 | i | i
Cc1ccc(C(C)NC(=O)C2CCCO2)cc1C (stereo not drawn) | -1.7% | -2.4% | 1.1e-09 | i | i
CCN(CC)c1cc2nonc2c2nonc12 | 1.3% | 5.2% | 2.53e-08 | i | i
CC(=C1C(=O)c2ccccc2C1=O)N1CCN(Cc2ccccc2)CC1 | 7.5% | ? | 1.75e-08 | i | i
COc1ccccc1-c1cncnc1NCc1cccnc1 | -0.6% | 6.3% | 1e-09 | i | i
NC(=O)NC(=O)COC(=O)c1ccccc1Oc1ccccc1 | 1.3% | 5.4% | 3.19e-08 | i | i
COc1ccc(Cl)cc1C(=O)NCC(c1ccco1)N1CCCC1 (stereo not drawn) | -1.0% | ? | 1.2e-08 | i | i
C=CCn1cc(C(=O)NCCCOC)c(=O)c2cc(S(=O)(=O)N(CC)CC)ccc21 | 0.8% | 6.1% | 1e-09 | i | i
CN1CCc2c(c3c(n2C)CCN(C)[C@@H]3c2cccnc2)[C@H]1c1cccnc1 | / | / | 8.51e-08 | i | i
Clc1cc(Br)ccc1OCCOCCN1CCOCC1 | -1.1% | -5.5% | / | / | /
O=C(CSc1nnc(-c2ccco2)n1-c1ccccc1)N1CCc2ccccc21 | 0.6% | -1.1% | 1.2e-09 | i | i
O=C(NCc1ccco1)c1cccc(NC(=O)c2ccccc2)c1 | -0.4% | 2.1% | 1e-09 | i | i
CN(C)CCN1C(=O)c2oc3ccccc3c(=O)c2C1c1ccccc1 (stereo not drawn) | 0.7% | -0.5% | 4.24e-08 | i | i
CC(=O)Nc1c(C(=O)c2ccccc2)oc2ccccc12 | 1.1% | ? | 1.5e-09 | i | i
CC(NC(=O)c1ccc(N(C)C)cc1)C(c1cccs1)N1CCN(C)CC1 (stereo not drawn) | -0.2% | -2.0% | 3.2e-08 | i | i
COc1cc(C#N)ccc1OCC(=O)c1ccc2c(c1)OCCO2 | 2.6% | 2.1% | 1e-09 | i | i
CCCC(CCC)C(=O)NCCN1CCOCC1 | 0.3% | ? | 1e-09 | i | i
FC(F)(F)c1nnc2ccc(-n3ccnc3)nn12 | 1.7% | 4.4% | / | / | /

This is a subset; rates above refer to the full screens.
